Compound activity as filed in PubChem BioAssay.
Mtb hypoxia rep: reduces hypoxia-regulated biosensor signal in M. tuberculosis; 0.1% of 300,000 active; M. tuberculosis hypoxia-regulated fluorescent reporter, fluorescence; fluorescence inhibition, % (concentration not given with the values);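 active = 35 to 45% if threefold the growth effect, above 45% if 1.5-fold the growth effect; inactive = the rest, general growth blockers included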;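 also: wells of about 50 µL received 100 nL stock; 0% = vehicle wells and 100% = reference inhibitor wells; whole bacteria with a GFP reporter of the hypoxia response; strong numbers were not always called active; many hits fall short of the cut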
ugtP null kill: kills S. aureus RN4220 lacking UgtP; S. aureus RN4220 ugtP deletion, OD600 growth, 16 h; some inactives read as strong as hits; growth inhibition, % (no concentration beside the values); 0.54% of 330,000 active; AID 1259309;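 active = z-score under -3 and OD600 up to 0.15 on both plates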;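 also: plate controls were untreated wells for no effect and antibiotic for full effect; wells of about 80 µL received 100 nL stock; the first replicate is given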
PrP UTR inh: suppresses PrP 5' UTR mRNA reporter expression; cell-based PrP 5' UTR mRNA reporter, plate reader; inhibition, % (no concentration beside the values); 0.35% of 340,000 active; AID 488862;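 active = every replicate at 50% or more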;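 also: 0 = median of the neutral control wells; tested in H4 reporter cells; numbers are from one replicate; inactives centre near -14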
BJeLR viability: BJeLR cell viability loss; BJeLR (HRASV12) viability, CellTiter-Glo ATP luminescence, 48 h; reference of the scale not given here; inhibition, % (test concentration not listed); 0.17% of 300,000 active; AID 1554;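 active = replicate mean above 50%; inconclusive = above 50% but judged a plate artefact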;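 also: 50 nL library stock added to about 25 µL; numbers are from one replicate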
Bead autofluor: flagged as autofluorescent in microsphere protease counterscreen; compound autofluorescence counterscreen, microsphere flow cytometry; active compounds read high; fluorescence intensity (no concentration beside the values); 3.1% of 360,000 active; AID 624483;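 active = at least 3 SD above the mean of all compounds, about 16000 in these data; inconclusive = too few beads counted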;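 also: 100 nL of 1 mM stock went into each well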
RN4220 kill: kills Staphylococcus aureus RN4220; inhibition, % (concentration not given with the values); 0.33% of 330,000 active; S. aureus RN4220 growth, OD600, 16 h;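 active = z-score of -3 or lower and OD600 up to 0.18 on both plates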;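 also: plate controls were untreated cells for no effect and reference antibiotic for full effect; stock transfer was 100 nL into about 80 µL; one replicate is shown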
Mtb hypoxia rep growth: recorded beside Mtb hypoxia rep, whose call it bears; growth inhibition, %; measured here: M. tuberculosis growth (absorbance);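 0% = vehicle and 100% = reference antibiotic; read after six days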
* hit, by the source's call; ? = inconclusive; nt = not tested or not shown.

A first look (5 entries):
SMILES | Mtb hypoxia rep | Mtb hypoxia rep growth | ugtP null kill | PrP UTR inh | BJeLR viability | Bead autofluor | RN4220 kill
Nc1nonc1-n1nnc(C(=O)N/N=C/c2cccs2)c1-c1ccc2c(c1)OCO2 | nt | nt | nt | 11 | -4 | 5680 | nt
Cc1cc(C)c(Cn2c(=O)n(CCCC(=O)NCc3ccco3)c(=O)c3ccccc32)c(C)c1 | nt | nt | -9 | -6 | 3 | 2660 | -2.2
NC(=O)COC(=O)c1ccccc1Oc1ccccc1 | 7 | 7 | 5 | -6 | -10 | 4182 | 3.7
Cc1cccc(OCCC(=O)OC(C)C(=O)Nc2ccc(Cl)cn2)c1 (configuration not stated) | 11 | 7 | 3 | -11 | 8 | ? | 5.0
CCN(CC)c1ccc(C=NNS(=O)(=O)c2ccc(CNC(C)=O)cc2)cc1 | 1 | 7 | 8 | nt | nt | nt | 1.0

The list itself, repeating the preview:
SMILES | Mtb hypoxia rep | Mtb hypoxia rep growth | ugtP null kill | PrP UTR inh | BJeLR viability | Bead autofluor | RN4220 kill
Nc1nonc1-n1nnc(C(=O)N/N=C/c2cccs2)c1-c1ccc2c(c1)OCO2 | nt | nt | nt | 11 | -4 | 5680 | nt
Cc1cc(C)c(Cn2c(=O)n(CCCC(=O)NCc3ccco3)c(=O)c3ccccc32)c(C)c1 | nt | nt | -9 | -6 | 3 | 2660 | -2.2
NC(=O)COC(=O)c1ccccc1Oc1ccccc1 | 7 | 7 | 5 | -6 | -10 | 4182 | 3.7
Cc1cccc(OCCC(=O)OC(C)C(=O)Nc2ccc(Cl)cn2)c1 (configuration not stated) | 11 | 7 | 3 | -11 | 8 | ? | 5.0
CCN(CC)c1ccc(C=NNS(=O)(=O)c2ccc(CNC(C)=O)cc2)cc1 | 1 | 7 | 8 | nt | nt | nt | 1.0
COC(=O)C1=COC(OC2OC(CO)C(O)C(O)C2O)C2C(C)OC(O)CC12 (configuration not stated) | 1 | 4 | -2 | nt | nt | nt | -1.2
Cc1ccc(NC(=O)CCN2C(=O)C3C4CCC(C4)C3C2=O)cc1Cl (configuration not stated) | -2 | 6 | 1 | 6 | -8 | 6399 | 3.6
COc1ccccc1N1CCN(CC(O)COc2ccc3c(C)cc(=O)oc3c2)CC1 (configuration not stated) | 16 | 3 | -4 | -28 | -6 | 5583 | 1.1
OCCNc1nc2ccc(Cl)cc2[nH]1 | 5 | 8 | 3 | -39 | 3 | 22121* | 3.6
COc1cc(OC)cc(C(=O)NCC(=O)OCC(=O)/C=C2/N(C)c3ccccc3C2(C)C)c1 | 5 | 8 | 8 | -12 | -3 | 4537 | 9.4
Cc1ccc2c(C)[nH]c(=O)cc2c1 | 1 | 4 | -4 | -9 | 5 | 3043 | -3.0
Cc1onc(-c2ccccc2)c1C(=O)N1CCN(S(=O)(=O)c2ccc(OC(F)(F)F)cc2)CC1 | -11 | 6 | 0 | 0 | 7 | 3687 | 0.0
O=C(Cc1c[nH]c2ccccc12)N1CCc2ccccc21 | 11 | 11 | 1 | -22 | 1 | 2612 | 2.5
Cc1cccc(OCCC(=O)Nc2ccc(S(=O)(=O)N3CCCC3)cc2)c1 | nt | nt | -10 | -15 | 2 | 4640 | -6.4
COc1ccc(OC)c(S(=O)(=O)Nc2cccc3ccccc23)c1 | 17 | 2 | -4 | nt | -2 | 4568 | 4.5
CCN1C(=O)[C@H]2[C@@H](c3ccc(-c4ccc5c(c4)OCO5)c(OC)c3)N[C@@](CC(C)C)(C(=O)OC)[C@H]2C1=O | nt | nt | nt | -2 | 1 | 3039 | nt
CC(C)(C)c1nnc(NN=Cc2ccc(Br)cc2)n(N)c1=O | 6 | 7 | -6 | nt | nt | nt | 11
O=C(CCc1ccccc1)NNC(=O)Nc1ccccc1 | -4 | 8 | -3 | -15 | -5 | 4179 | 4.1
C(=C\c1cc(/C=C/c2ccccc2)ncn1)/c1ccccc1 | 5 | 3 | -3 | -44 | -8 | 3921 | 5.0
CC(C)OC1(c2ccccc2)OC(=O)c2ccccc21 (configuration not stated) | 13 | 8 | 5 | -22 | 9 | 5000 | 6.3
Cc1ccc(C)n1NC(=O)c1ccco1 | 2 | 5 | -5 | 3 | 6 | 2494 | 4.4
O=C(CC(=O)N/N=C/c1ccc(Cl)cc1Cl)NCc1ccccc1 | nt | nt | nt | -17 | 0 | 2858 | nt
COc1ccc2cc(C)c(SCC(=O)Nc3cc(C)on3)nc2c1 | 6 | 8 | -1 | -11 | 0 | 9084 | 6.9
Cc1cccc2cn[nH]c12 | -2 | -6 | -6 | -5 | 7 | 2737 | 7.2
CC(C)c1ccccc1NC1=NCCCS1 | -12 | -7 | 0 | -17 | 0 | 5862 | -0.8
CNC(=O)Nc1ccc2snnc2c1 | 5 | 1 | 8 | -15 | 5 | 6167 | 0.1
Cc1ccc(-c2n[nH]c(=S)n2N=Cc2sccc2C)cc1 | 16 | 9 | -17 | nt | nt | nt | 9.6
CCOc1ccc(C2C(C(=O)c3ccc(C)o3)=C(O)C(=O)N2c2cc(C)on2)cc1OC (configuration not stated) | -12 | -10 | -3 | -17 | -3 | 5864 | -3.9
COc1cccc(NC(=S)Nc2cccnc2)c1 | 1 | 3 | 0 | -15 | -19 | 8484 | 3.4
COc1cccc(OC)c1C(=O)Nc1ccc(C(=O)NCc2ccccc2)cc1 | 3 | 1 | 6 | -7 | 0 | 5981 | 3.2
O=C(Cc1ccccc1)NCC(=O)NN=Cc1ccc(Cl)cc1 | 12 | 1 | 9 | nt | nt | nt | 1.5
CCc1ccc(NC2=NC(C(=O)c3ccccc3)CC(=O)N2)cc1 (configuration not stated) | nt | nt | 10 | -2 | 4 | 5148 | -1.8
O=C(CSc1nc2ccccc2o1)NCc1n[nH]c(=O)c2ccccc12 | 1 | 4 | 7 | -26 | -7 | 8795 | 3.3
COc1cc(N/N=C(\C)c2ccc(O)c(C)c2)nc(-c2ccccc2)n1 | nt | nt | nt | -10 | 0 | 2597 | nt
CCn1c2ccccc2c2nnc(SCCN3CCOCC3)nc21 | 2 | -1 | 4 | -9 | 2 | 3083 | 2.6
CCC(=O)OC1(Cc2ccc(CC)cc2)CC(C)N(C)CC1C (configuration not stated) | 7 | 16 | 1 | -15 | 0 | 4437 | 4.1
CC(/C=C/c1ccc2c(c1)OCO2)=NNC(=O)COc1ccccc1C | 1 | 8 | -1 | nt | nt | nt | 9.0
Clc1ccc(C[n+]2cc(-c3ccc(Cl)cc3)n3c2CCC3)cc1 | 9 | 15 | -13 | -20 | -4 | 5499 | -3.4
Cc1cccc(N2CCN(C(=O)C(Cc3ccccc3)n3cccc3)CC2)c1C (configuration not stated) | -12 | 0 | -4 | -83 | 4 | 5722 | -2.4
Cc1ccc(C=C(NC(=O)c2ccccc2)C(=O)NCCc2ccccn2)o1 | 5 | 1 | 0 | nt | nt | nt | 4.7
Cc1ccc(NC(=S)N2CCN(c3ccccn3)CC2)cc1C | 0 | 15 | 9 | -11 | -4 | 3598 | 1.2
CN(CC(=O)NCc1ccc(F)cc1)Cc1cccc(Cl)c1 | 8 | 8 | 6 | -22 | -2 | 3805 | -0.1
COCC(=O)Nc1cc([N+](=O)[O-])ccc1C | nt | nt | 4 | -7 | -2 | 2144 | -2.5
COc1ccc(S(=O)(=O)N2CCN(C(=O)NCc3ccccc3)CC2)cc1 | nt | nt | 6 | -9 | 19 | 4400 | 0.8
COc1ccc(NC(=O)COC(=O)CCOc2ccccc2C)cc1Cl | 0 | 14 | 5 | -17 | -3 | 5530 | 0.8
Cc1nc(-c2ccccc2)sc1C(=O)Nc1ccc(S(N)(=O)=O)cc1 | 0 | 2 | 0 | -3 | 11 | 3897 | 6.8
COc1ccc(NC(=O)OC(C)C)cc1 | 5 | 8 | -8 | -90 | -3 | 3412 | 1.8
CCN(CC)CC(O)Cn1c(-c2ccccc2Cl)nc2ccccc21 (configuration not stated) | -10 | 9 | -1 | nt | -2 | 5652 | -0.9
Cc1ccc(S(=O)(=O)N2CCCCC2C(=O)Nc2nncs2)cc1 (configuration not stated) | 13 | 12 | 0 | -19 | -4 | 5958 | 3.0
Cc1cc(N/C=C/C(=O)c2cccc3ccccc23)no1 | 12 | 11 | 2 | -31 | -3 | 11076 | 12
Cc1ccc(S(=O)(=O)N[C@H](C(=O)N2CCC(C(=O)N[C@@H](CCC(N)=O)C(=O)O)CC2)C(C)C)cc1 | nt | nt | -1 | -3 | -2 | 5881 | 2.5
COc1cc(OC)c(C=NN2CCN(c3ccccc3OC)CC2)c(OC)c1 | 15 | -1 | 7 | nt | nt | nt | -0.3
CCc1nc2ccccc2c(C(=O)OCC(=O)Nc2cccc(S(=O)(=O)NC3=NCCCCC3)c2)c1C | 11 | 10 | 4 | -9 | -3 | 4143 | 1.7
CCc1ccc(N/C(N)=N/c2nc(CSc3ccccn3)cc(=O)[nH]2)cc1 | -13 | 6 | -6 | -16 | nt | 4145 | 5.2
CCOc1cc(C=NNC(=O)c2ccncc2)ccc1OS(C)(=O)=O | 6 | 6 | 0 | nt | nt | nt | -6.7
CCOc1ccc(C(=O)N2CCSC2=S)cc1 | nt | nt | 8 | -19 | 3 | 4372 | 0.9
CCOc1ccc(CNc2ccc3c(c2)ncn3C)cc1 | 0 | 3 | 7 | -40 | 3 | 4462 | -1.3
COc1cc(C=NNC(=O)CNc2n[nH]c(=O)[nH]c2=O)ccc1OCc1ccccc1 | 13 | 13 | 1 | nt | nt | nt | 5.0
Cn1cc([N+](=O)[O-])c(C(=O)Nc2ccc3c(c2)OCCO3)n1 | 1 | 7 | -8 | -22 | 4 | 13325 | 2.2
O=C(Cc1ccccc1F)Nc1ccc(S(=O)(=O)N2CCCC2)cc1 | 12 | 4 | 6 | -71 | nt | nt | 6.5
The list goes on.
SMILES | Mtb hypoxia rep | Mtb hypoxia rep growth | ugtP null kill | PrP UTR inh | BJeLR viability | Bead autofluor | RN4220 kill
C=CCNC(=O)c1sc(SC)cc1-c1ccc(Cl)cc1 | nt | nt | -4 | 0 | 5 | 2143 | 1.1
CCOC(=O)/C(C#N)=C/c1ccc(OC(=O)c2ccccn2)cc1 | 9 | 4 | 1 | -7 | 5 | 7382 | 6.9
C=C(C)C(=O)OC1(C(F)(F)F)Oc2cc(C)ccc2NC1=O (configuration not stated) | -1 | -6 | -3 | -37 | 1 | 3901 | 1.2
O=[N+]([O-])c1ccc(O)c(C=Nc2ccc3c(c2)OCCO3)c1 | 3 | -3 | 74 | -26 | 12 | 2081 | 92*
Cc1ccc(OCC(=O)Nc2cccc(S(=O)(=O)N3CCCCCC3)c2)c([N+](=O)[O-])n1 | 4 | 11 | 4 | -26 | 15 | 4935 | 5.3
CCCCCCCCCC(=O)N[C@H](CN1CCOCC1)[C@H](O)c1ccccc1 | nt | nt | nt | -43 | 4 | 5664 | nt
O=C(NCc1ccccc1)C(c1ccc(O)cc1)N(C(=O)Cn1nnc(-c2cccs2)n1)c1ccc2c(c1)OCCO2 (configuration not stated) | 4 | -2 | 16 | -11 | 0 | 5122 | -2.9
O=C(COc1ccccc1)NCC(c1ccco1)N1CCN(c2ccccc2)CC1 (configuration not stated) | 3 | -1 | 7 | -19 | 8 | 4451 | 1.5
O=C(COC(=O)C1CCN(S(=O)(=O)c2ccccc2C(F)(F)F)CC1)NCc1ccc(F)cc1 | -1 | 2 | 18 | -10 | -4 | 7715 | 6.5
CCOC(=O)/C=C(\C)Sc1cc(=O)oc2ccccc12 | 9 | 14 | 6 | -8 | -2 | 4616 | 8.6
O=C(O)C1C2C=CC(C2)C1C(=O)Nc1cccc(F)c1 (configuration not stated) | 5 | 9 | -7 | -37 | 7 | 22384* | -3.5
COc1ccc(C(=O)Cn2c(Br)nc3c2c(=O)n(C)c(=O)n3C)cc1OC | -19 | 7 | -16 | -26 | 0 | 8271 | -9.3
COc1ccc(/C=C2/SC(=S)N(NS(=O)(=O)c3ccc(C)cc3)C2=O)cc1 | 20 | 10 | 82* | -18 | 8 | 3871 | 64
Nc1nsnc1C(=O)NCCO | 11 | 6 | 4 | -18 | -1 | 17466* | 2.6
O=C(CNC(=O)c1ccco1)NCC(=O)OC(C(=O)c1ccccc1)c1ccc(Cl)cc1 (configuration not stated) | 3 | 5 | 14 | -3 | 1 | 4429 | 6.2
Cc1n[nH]c(C)c1CCCCOc1ccccc1[N+](=O)[O-] | 5 | -1 | 2 | -19 | 2 | 3801 | 7.6
Cc1cc(C)nc(SCCC(=O)N(C)C)n1 | 4 | -1 | 14 | -7 | 0 | 3085 | 1.7
